Screening data as filed in PubChem.
SARS PLP yeast = inhibitors of SARS-CoV papain-like protease in yeast; S. cerevisiae expressing SARS-CoV PLpro, growth rescue; control for the full effect not named in the record; Potency, µM (titrated, usually from 32.9 µM), without a hit: at the highest dose activity, positive = growth rescue; hit rate 0.19% among 330,000; AID 485353; note: 0% is about no effect; nearly all actives have a fitted effect of over 55% in size; growth read by luminescence after 48 h
Cruzain inh noDet = cruzain (T. cruzi) inhibition without detergent. Potency, µM, for inactives: max response, negative = inhibition, usual class: inhibitors. hit rate 2.3% among 200,000. P25779. purified cruzain, Z-FR-AMC fluorescence, no detergent; active = well fitted curve in the direction sought with a large enough effect; inconclusive = small, poorly fitted or top-dose-only effect, or another doubt; inactive = no such curve, though single readings can be large; an effect the other way counts as inactive or inconclusive;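 note: plate controls were enzyme without inhibitor for no effect and buffer without enzyme for full effect; nearly all actives have a fitted effect of over 40% in size; top concentration of the series not given in the record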
Target sequence (P25779 123-467 limits assumed): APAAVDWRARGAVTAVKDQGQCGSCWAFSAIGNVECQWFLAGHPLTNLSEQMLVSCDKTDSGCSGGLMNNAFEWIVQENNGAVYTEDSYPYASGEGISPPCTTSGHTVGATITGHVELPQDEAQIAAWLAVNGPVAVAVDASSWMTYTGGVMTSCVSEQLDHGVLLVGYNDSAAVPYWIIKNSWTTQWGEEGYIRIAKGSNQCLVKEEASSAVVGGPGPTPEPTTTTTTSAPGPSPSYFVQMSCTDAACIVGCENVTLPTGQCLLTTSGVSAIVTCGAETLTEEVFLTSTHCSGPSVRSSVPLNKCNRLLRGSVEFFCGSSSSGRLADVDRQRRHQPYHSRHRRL
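Purified cruzain at 1.5 nM, pre-incubated 15 min with compound at room temperature in 100 mM sodium acetate pH 5.5, 5 mM DTT, 0.00005% Triton X-100. Reaction started with 2 uM Z-FR-AMC; AMC fluorescence increase over 60 s gives rate.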
RE007 growth inh = less growth of the S. pombe RE007 Vpr strain; hit rate 0.21% among 360,000; S. pombe RE007 Vpr strain, BacTiter-Glo ATP luminescence, 24 h; control for the full effect not named in the record; Potency, µM (top dose mostly 92.2 µM), for the others: at the highest dose activity change, negative = less growth; active = well fitted falling curve with a large enough effect; inconclusive = small, poorly fitted or top-dose-only effect; inactive = no such curve, though single readings can be large or run the other way;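 note: % is set by controls: 0 for no effect and ±100 for the full control effect; nearly all actives have a fitted effect of over 50% in size; the assay follows cell death caused by Vpr and the record does not say whether a fall means rescue or toxicity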
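Fission yeast strain RE007, carrying one chromosomally integrated HIV-1 vpr copy, was seeded at OD 0.01 in PMG+AL medium with 23 nL pinned compound. After 24 h at 30 °C and 99% humidity, viability was read by BacTiter-Glo luminescence.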
2A StopGo = lowers the luciferase signal of an FMDV 2A StopGo reporter; human cells with a luciferase reporter of 2A StopGo recoding; control for the full effect not named in the record; Potency, µM (series often up to 57.9 µM), without a hit: at the top dose signal change, negative = less light; hit rate 1.2% among 410,000; active = well fitted falling curve with a large enough effect; inconclusive = small, poorly fitted or top-dose-only effect; inactive = no such curve, though single readings can be large or run the other way; tested in HEK293T cells; note: % is set by controls: 0 for no effect and ±100 for the full control effect; nearly all actives have a fitted effect of over 45% in size; luciferase light after 4 h
NS1 inh = influenza NS1 inhibition; Potency, µM (top dose mostly 46.1 µM), inactives show at the highest dose activity, positive = more growth; S. cerevisiae slowed by influenza A NS1, growth recovery by OD600; AID 2326; hit rate 0.4% among 270,000; note: actives are rising curves; nearly all actives have a fitted effect of over 50% in size
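Read-out: OD600 growth recovery of NS1-expressing budding yeast. Cells grown overnight at 30C in -URA glucose medium, washed, resuspended and diluted 1:100 in 2% galactose assay medium, pH 6.0. Same strain lacking NS1 served as positive control.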
Cruzain Triton = blocks cruzain activity in presence of Triton detergent; purified cruzain, Z-FR-AMC fluorescence, 0.01% Triton; hit rate 0.43% among 200,000; Potency, µM, for inactives: max response, negative = inhibition, hits mostly inhibitors; active = well fitted curve in the direction sought with a large enough effect; inconclusive = small, poorly fitted or top-dose-only effect, or another doubt; inactive = no such curve, though single readings can be large; an effect the other way counts as inactive or inconclusive;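 note: plate controls were neutral wells for no effect and buffer without enzyme for full effect; nearly all actives have a fitted effect of over 40% in size; top concentration of the series not given in the record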
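Enzyme 1.5 nM, Z-FR-AMC 2 uM, NaOAc 100 mM pH 5.5, DTT 5 mM, Triton X-100 0.01%; 15 min RT compound preincubation; kinetic ex360/em450, 60 s delta.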
MARV entry inh = Marburg virus entry inhibition; Marburg virus pseudotyped entry inhibition, cell reporter; control for the full effect not named in the record; about a third of the inactives were read at about 46 µM; Potency, µM (doses to about 37.8 µM), without a hit: at the top dose activity change, negative = inhibition, hits mostly inhibitors; hit rate 1.8% among 300,000; AID 540276; active = well fitted inhibition curve with a large enough effect; inconclusive = small, poorly fitted or top-dose-only effect, or effect the other way; inactive = flat fitted curve, though single readings scatter; tested in HEK293 cells; about a fifth of its hits are not listed in these tables; note: % is set by controls: 0 for no effect and ±100 for the full control effect; luciferase read-out
Lassa entry inh = inhibitors of Lassa virus binding or cell entry | hit rate 1.2% among 300,000 | Potency, µM (doses to about 37.9 µM), for inactives: at the highest dose activity change, negative = inhibition, hits mostly inhibitors | Lassa virus pseudotype entry inhibition, cell reporter; control for the full effect not named in the record; active means well fitted inhibition curve with a large enough effect; inconclusive means small, poorly fitted or top-dose-only effect, or effect the other way; inactive means flat fitted curve, though single readings scatter; tested in HEK293 cells; note: % is set by controls: 0 for no effect and ±100 for the full control effect; nearly all actives have a fitted effect of over 50% in size; luciferase read-out
An asterisk follows results filed as active; ? = inconclusive; · = not tested or not shown; & = joins results of further samples; [ ] = another dose, or the depositor's remark. Unless noted, calls come from the whole dose curve; as a rule, active means well fitted rising curve with a large enough effect; inconclusive means small, poorly fitted or top-dose-only effect; inactive means no such curve, though single readings can be large or run the other way. Potency is the fitted concentration of half-maximal effect.

SMILES	SARS PLP yeast	Cruzain inh noDet	RE007 growth inh	2A StopGo	NS1 inh	Cruzain Triton	MARV entry inh	Lassa entry inh
Cc1ccc(CN(C)C(=O)c2c(C)nn(-c3ccccc3)c2C)cc1	-1%	·	3%	6%	-4%	·	1%[46.1 µM]	13%
CC(=O)Cc1nsc(NC(=O)c2ccc(COc3ccccc3)o2)n1	-1%	6%	6%	8%	-48%	-6.8%	7%	-4%
COc1cc(C(=S)N2CCOCC2)cc(OC)c1OC(=O)c1ccc([N+](=O)[O-])cc1[N+](=O)[O-]	2%	·	2%	0%	22%	·	?	-15%
Cc1cc(NC(=O)CSc2ccc3ccccc3c2)no1	?	-26%	-6%	-14%	-7%	?	23%	8%
O=C(C1CC(=O)N(c2ccc3c(c2)OCCO3)C1)N1CCN(S(=O)(=O)c2cccc(F)c2)CC1 (stereo not drawn)	·	·	16%	-28%	·	·	18%	1%
O=C(Nc1ccc(S(=O)(=O)Nc2ncccn2)cc1)c1ccc(F)c(S(=O)(=O)N2CCOCC2)c1	2%	·	-4%	-11%	-3%	·	·	·
CCOCCn1c(CN(C)Cc2ccccc2)nc2c1c(=O)n(C)c(=O)n2C	-12%	·	12%	0%	-6%	·	·	·
Cn1c(N)c(C(=O)CSc2nnc(Cc3cccs3)n2C2CC2)c(=O)n(C)c1=O	-3%	·	13%	56%[activator]	·	·	-5%	4%
CC1CCCC(C)N1C(=O)COC(=O)C1CCN(S(=O)(=O)c2ccc3c(c2)OCCO3)CC1 (stereo not drawn)	6%	·	-7%	0%	·	·	-4%[46.1 µM]	-23%
COc1cc(CN2CCC(CO)(CCOc3ccccc3)CC2)cc(OC)c1OC	-2%	·	0%	-8%	-1%	·	·	·
OC(COc1cccc(OCC(O)CN2CCOCC2)c1)CN1CCOCC1 (stereo not drawn)	-7%&3%	3%&0%	14%&-15%	-24%&3%	-4%&-2%	3.6%&1.9%	0%	4%
CCOC(=O)c1c(-c2ccccc2)csc1NC(=O)/C(C#N)=C\c1ccc(O)c(OC)c1	·	·	-13%	?	·	·	-18%[46.1 µM]	7%[46.1 µM]
COc1ccc(Cl)cc1-c1nc(SCC(=O)NC2CCCC2)n[nH]1	-20%	·	-12%	?	·	·	-3%	-17%
CCCCNc1ccncc1S(=O)(=O)NC(=O)NC(C)C	1%	-2%	4%	25%	17%	0.3%	?	2%
C1CC1Cc1noc(CN2CCN(CC3CC3)CC2)n1	0%	·	5%	6%	2%	·	?	5%
COc1ccnc(Oc2ccccc2)n1	17%	4%	8%	32%[activator]	-2%	-0.5%	6%	-14%
COc1ccccc1C1OC(c2cccc([N+](=O)[O-])c2)=NN1C(C)=O (stereo not drawn)	-2%	·	23%	-22%	1%	·	-13%[46.1 µM]	8%
CN1CCCc2cc3c(C(F)(F)F)cc(=O)oc3nc21	3%	-2%	20%	-15%	-5%	-1.0%	-2%	27%
O=C(Cc1cccc2ccccc12)N/N=C/c1ccncc1	0%	·	-10%	48%[activator]	-4%	·	1%[46.1 µM]	-1%
CN(C)c1ccc(N=C/C=C2/N(C)c3ccccc3C2(C)C)cc1	-12%	-5%	-1%	7%	-16%	-19%	?	?

Brought forward from above: four entries, then new ones.
SMILES	SARS PLP yeast	Cruzain inh noDet	RE007 growth inh	2A StopGo	NS1 inh	Cruzain Triton	MARV entry inh	Lassa entry inh
COc1ccccc1C1OC(c2cccc([N+](=O)[O-])c2)=NN1C(C)=O (stereo not drawn)	-2%	·	23%	-22%	1%	·	-13%[46.1 µM]	8%
CN1CCCc2cc3c(C(F)(F)F)cc(=O)oc3nc21	3%	-2%	20%	-15%	-5%	-1.0%	-2%	27%
O=C(Cc1cccc2ccccc12)N/N=C/c1ccncc1	0%	·	-10%	48%[activator]	-4%	·	1%[46.1 µM]	-1%
CN(C)c1ccc(N=C/C=C2/N(C)c3ccccc3C2(C)C)cc1	-12%	-5%	-1%	7%	-16%	-19%	?	?
O=C(COc1ccc(Br)cc1)N1CCN(Cc2ccc3c(c2)OCO3)CC1	-2%	·	3%	16%	-36%	·	-27%[46.1 µM]	-28%[46.1 µM]
Cc1ccc(OCC(=O)Nc2cc(-c3nn4c(C)nnc4s3)ccc2C)cc1	-1%	·	-13%	-8%	-1%	·	·	·
CC(NC(=O)NC1CCCCC1)C(c1cccs1)N1CCN(Cc2ccccc2)CC1 (stereo not drawn)	?	-3%	1%	-19%	2%	0.1%	-2%	·
O=C(COC(=O)c1ccc(Br)c(S(=O)(=O)N2CCOCC2)c1)NCCc1ccccc1	-26%	·	4%	-13%	·	·	1%	12%
Cc1ccc(NC(=S)N(CCN(C)C)Cc2cccs2)cc1	-8%	·	2%	27%	-4%	·	?	4%[46.1 µM]
CCN(c1ccc(NC(=O)c2cccc(S(=O)(=O)N3CCN(C)CC3)c2)cc1)C(C)C	-2%	·	1%	-15%	-35%	·	?	-12%
COc1ccc(CCNC(=S)N2CCN(S(=O)(=O)c3ccc(Cl)cc3)CC2)cc1	-4%	·	-8%	3%	-3%	·	-1%	0%
C#CC(C)(C)NC(=O)c1ccccc1OC	4%	-1%	5%	10%	-1%	0.7%	0%	?
COc1ccc(S(=O)(=O)N(C)CC(=O)NC2CCCC2)cc1Cl	3%	1%	9%	-20%	-4%	2.5%	0%	-1%
Cc1nc(-c2ccc(NC(=O)/C=C\C(=O)O)cc2)cs1	-1%	·	-8%	-11%	·	·	-3%[46.1 µM]	-28%
COc1cc(/C=N/n2c(-c3ccc4c(c3)NC(=O)CO4)csc2=Nc2cccc(C)c2)ccc1O	-1%	-19%	-4%	?	11µM*	-11%	?	23µM*
O=C(CSc1ncc(C(F)(F)F)cc1Cl)N1CCN(S(=O)(=O)c2ccc3ccccc3c2)CC1	-3%	-14%	-3%	-11%	15%	-4.4%	?	-18%
COc1ccc(C(=O)Nc2ccnn2C2CCN(Cc3ccc4nonc4c3)CC2)cc1	-3%	·	-5%	-24%	10%	·	·	·
Clc1cccc(Cl)c1CSc1cc2c(nn1)-c1ccccc1CC2	-2%	?	8%	25%	4%	-0.1%	?	-6%
CCn1ccc(C(=O)Nc2c(C)nn(Cc3c(F)c(F)c(F)c(F)c3F)c2C)n1	3%	4%	1%	-9%	5%	-2.3%	15%	3%
O=C(NC(C1CC1)C1CC1)C1CCC(=O)N(CCCN2CCCC2=O)C1 (stereo not drawn)	-4%	·	3%	24%	-10%	·	·	·
CCOC(=O)N1CCN(C(=O)COC(=O)Cc2ccc(OC)cc2)CC1	18%	·	-17%	-11%	20%	·	-4%[46.1 µM]	?
O=C(N1CCOCC1)C1(S(=O)(=O)c2ccccc2)CC=CC1	-1%	·	6%	-6%	8%	·	·	·
Cc1ccc(NS(=O)(=O)c2ccc(Br)cc2)nc1	0%	·	5%	62%[activator]	0%	·	2%[46.1 µM]	4%[46.1 µM]
CN1C(=O)c2ccccc2C(C(=O)NCCCN2CCCC2)C1c1c[nH]c2ccccc12 (stereo not drawn)	-3%	4%	-7%	9%	-16%	0.4%	-6%	6%
CC(=O)N1CCN(C(=S)c2ccc(N(C)C)cc2)CC1	1%	12%	-9%	·	8%	1.1%	28%	-1%
Cc1ccc(-c2csc3nnc(SCC(=O)Nc4nsc(-c5ccccc5)n4)n23)cc1	·	?	3%	?	-3%	2.6%	-4%	-5%
O=C(NC(C(=O)NCCN1CCOCC1)C12CC3CC(CC(C3)C1)C2)C1CCCCC1 (stereo not drawn)	-4%	0%	-16%	-23%	0%	2.3%	-2%	-8%
COc1ccc(S(=O)(=O)Nc2ccc3c(c2)OCO3)cc1OC	-1%	?	10%	98%[activator]	-10%	0.6%	-17%	5%
Cc1ccc2c(cnn2C(=O)CCC(=O)NC2CCCCC2)c1	-2%	·	-1%	-8%	2%	·	·	·
COc1cc(NC(=O)c2ccccc2)c(OC)cc1NC(=O)CN1CCCCC1	26%	-10%	-2%	13%	-3%	-3.9%	-17%	-20%
COc1ccccc1-c1nc(-c2ccccc2)nc(N2CCN(C)CC2)c1C#N	-1%	·	2%	?	·	·	?	2%
Cc1c(Br)c([N+](=O)[O-])nn1CC(=O)NCC1CCCO1 (stereo not drawn)	1%	·	6%	9%	0%	·	·	·
C/C(=N/NC(=O)c1ccc(Br)o1)c1cccc(NC(=O)c2ccc(C)o2)c1	-9%	-14%	1%	22%	-18%	-8.2%	-5%	6%
O=C(O)CC1(CC(=O)Nc2cc(C(F)(F)F)cc(C(F)(F)F)c2)CCCCC1	-8%	·	-3%	?	2%	·	-19%[46.1 µM]	3%
Cc1cc(C)nc(NC(=O)CN2C(=O)c3ccccc3C2=O)n1	-1%	-5%	9%	26%	?	-4.2%	4%	-2%
COc1ccc(CCNC(=O)CS(=O)Cc2nc(-c3ccc(C)cc3)oc2C)cc1OC (stereo not drawn)	0%	?	2%	-10%&-6%	13%	-8.0%	13%&13%[46.1 µM]	?
COC(=O)C1CCC(=S)N1C(=O)c1ccccc1 (stereo not drawn)	-15%	·	?	-25%	-104%	·	·	·
Cc1ccc(CNC(=O)C2CCN(c3nc(C)cc(C)n3)CC2)cc1	·	·	-9%	4%	·	·	3%[46.1 µM]	21%

A portion taken from the entries so far, for reference:
SMILES	SARS PLP yeast	Cruzain inh noDet	RE007 growth inh	2A StopGo	NS1 inh	Cruzain Triton	MARV entry inh	Lassa entry inh
C/C(=N/NC(=O)c1ccc(Br)o1)c1cccc(NC(=O)c2ccc(C)o2)c1	-9%	-14%	1%	22%	-18%	-8.2%	-5%	6%
O=C(O)CC1(CC(=O)Nc2cc(C(F)(F)F)cc(C(F)(F)F)c2)CCCCC1	-8%	·	-3%	?	2%	·	-19%[46.1 µM]	3%
Cc1cc(C)nc(NC(=O)CN2C(=O)c3ccccc3C2=O)n1	-1%	-5%	9%	26%	?	-4.2%	4%	-2%
